Assay outcomes: PubChem BioAssay, Broad Institute
DUX4 inh – blocks DUX4-driven transcriptional activation | 293T-iDUX4 ZSCAN4-Gaussia luciferase reporter, 24 h; active compounds read low | activity change, negative = inhibition, % (test concentration not listed) | 37,000 tested, 0.8% active;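 active = -10% or lower and over 25 points stronger than a control reporter; inconclusive = -10% or lower with a smaller gap; inactive = above -10%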;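 also: 0% = median of neutral control wells and -100% = median of positive control wells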
DUX4 inh difference – recorded beside DUX4 inh, whose call it bears; Gaussia minus Italica difference, %; measured here: selective DUX4 reporter inhibition;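 worked out from the two reporters; negative = selective loss of the DUX4 reporter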
DUX4 inh control – recorded beside DUX4 inh, whose call it bears; activity change, negative = inhibition, %; measured here: Italica tet-on control reporter;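 0 = neutral control and -100 = positive control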
The depositor's hits bear a star; ? = inconclusive; · = not tested or not shown; & = joins results of further samples. These rows are one share of the data; the hit share may differ from the screen's.

SMILES	DUX4 inh	DUX4 inh difference	DUX4 inh control
CCS(=O)(=O)N1CCC2(CC1)CN(C(=O)Nc1c(C)noc1C)[C@H](CO)c1c2c2ccc(OC)cc2n1C	20	13	7.1
CN1C(=O)c2cc(NC(=O)NCc3ccccc3)ccc2OC[C@@H]2O[C@@H](CC(=O)NCC3CCCCC3)CC[C@@H]21	2	-1	3.0
C[C@H](CO)N1C[C@H](C)[C@@H](CN(C)C(=O)Nc2ccccc2F)Oc2cc(Br)ccc2S1(=O)=O	-2	-1	-1.5
O=C(C[C@@H]1CC[C@@H]2[C@H](COC[C@H](O)CN2CCC(F)(F)F)O1)NCc1ccc2c(c1)OCO2	6	3	3.1
C/C=C/c1ccc2c(c1)O[C@H](CN(C)CC1CCOCC1)[C@@H](C)CN([C@H](C)CO)S2(=O)=O	-1	2	-2.0
CCCNC(=O)N1CC[C@@H]2[C@H]1c1cc(-c3ccc(F)cc3)ccc1N(C)[C@H]2CO	16	0	16
CCNC(=O)C[C@H]1CC[C@@H]2[C@H](COC[C@@H](O)CN2Cc2ccccc2F)O1	19	11	7.4
O=C(CC(F)(F)F)N1C[C@H]2[C@@H](c3ccccc31)[C@@H](CO)N2CC1CCOCC1	0	-1	0.4
CN(C)CCCNC(=O)[C@H]1[C@H](CO)[C@H]2Cn3c(ccc(-c4ccncc4)c3=O)[C@@H]1N2C(=O)CC1CC1	2	-4	5.8
CS(=O)(=O)N1CC(=O)N2[C@H](CO)[C@@H](c3ccc(C#Cc4ccc(F)cc4)cc3)[C@H]2C1	0	5	-5.0
CCC(=O)N1CC[C@@H]2[C@H]1c1cc(-c3cccc(OC)c3)ccc1N(C)[C@H]2CO	-1	2	-3.1
N#C[C@@H]1[C@@H](c2ccc(/C=C/c3ccccc3)cc2)[C@@H](CO)N1C(=O)Cc1ccccn1	0	3	-3.4
COc1ccccc1NC(=O)N1CC(=O)N2[C@@H](CO)[C@H](c3ccc(C#CC(C)C)cc3)[C@@H]2C1	0	0	-0.6
CN1C(=O)c2cc(NC(=O)Nc3ccccc3F)ccc2OC[C@@H]2O[C@H](CC(=O)NCc3ccc(-c4ccccc4)cc3)CC[C@@H]21	1	0	1.0
O=C(C[C@H]1CC[C@@H]2[C@H](COC[C@@H](O)CN2Cc2cccc(Cl)c2)O1)NCc1cccc(F)c1	-1	11	-12
CNC[C@@H]1OCc2ccccc2-c2ccccc2C(=O)N([C@@H](C)CO)C[C@H]1C	3	-5	7.7
CO[C@@H]1CN(C)C(=O)c2cc(NC(=O)Nc3cc(F)ccc3F)ccc2OC[C@H](C)NC[C@@H]1C	-3&-1	-5&-1	1.9&0.2
O=C(CC1CC1)N1CC(=O)N2[C@H](CO)[C@H](c3ccc(C#Cc4ccccc4)cc3)[C@H]2C1	-8	-12	4.1
COCC(=O)N1CC[C@H]2[C@@H]1c1cc(-c3cccc(OC)c3)ccc1N(C)[C@H]2CO	32	32	-0.2
O=C(C[C@H]1C[C@@H]2c3cc(NS(=O)(=O)c4ccc(F)cc4)ccc3O[C@@H]2[C@@H](CO)O1)NCc1ccc(Cl)cc1	?	·	·
COc1ccc(S(=O)(=O)Nc2ccc3c(c2)[C@@H]2C[C@@H](CC(=O)N(C)C)O[C@H](CO)[C@@H]2O3)cc1	-4	5	-8.3
COc1ccc2c3c(n(C)c2c1)[C@@H](CO)N(C(=O)NC(C)C)CC31CCN(CC2CCOCC2)CC1	16	4	12
CCNC(=O)[C@@H]1[C@@H](CO)[C@@H]2Cn3c(ccc(-c4ccc(OC)cc4)c3=O)[C@@H]2N1Cc1ccccc1	-7	0	-7.2
COC(=O)C[C@H]1CC[C@@H]2[C@@H](COc3ccc(NC(=O)C4CCOCC4)cc3C(=O)N2C)O1	-3	-4	0.8
COc1ccccc1CNC(=O)C[C@@H]1C[C@H]2c3cc(NS(=O)(=O)c4ccc(F)cc4)ccc3O[C@H]2[C@@H](CO)O1	1	-2	3.2
CN(C[C@@H]1N[C@H](CO)[C@@H]1c1ccc(-c2ccccc2)cc1)C(=O)C1CCC1	-1	18	-20
CN(C)CC(=O)N1CC2(C1)[C@H](c1ccccc1)[C@@H](CO)N2C(=O)C1CCC1	11	8	3.5
Cc1noc(C)c1S(=O)(=O)Nc1ccc2c(c1)CC(=O)N([C@H](C)CO)C[C@@H](C)[C@@H](CN(C)C(=O)Nc1cccc3ccccc13)O2	2	0	1.4
O=C(NC[C@H]1[C@H](c2ccccc2)[C@@H](CO)N1C(=O)C1CCC1)NC1CCCC1	3	4	-0.8
Cc1ccccc1-c1ccccc1[C@@H]1[C@@H](C#N)N(C(=O)c2ccccc2)[C@H]1CO	-4	0	-4.1
CC[C@@H]1C/C=C\C[C@H](c2ccccc2)NC(=O)CCC(=O)N1	2	1	0.8
CCN(C[C@@H]1[C@@H](c2ccccc2)[C@@H](CO)N1C(=O)COC)S(C)(=O)=O	-1	0	-1.0
CC(C)C(=O)Nc1ccc2c(c1)C(=O)N(C)[C@H]1CC[C@H](CC(=O)NCCCN(C)C)O[C@H]1CO2	2	5	-2.3
COc1cccc(NC(=O)N(C)C[C@@H]2Oc3ncc(C#Cc4cccnc4)cc3C(=O)N([C@H](C)CO)C[C@@H]2C)c1	3	-2	4.9
O=C(c1ccc(F)cc1)N1CC[C@@H]2[C@H](CO)Nc3ccc(-c4ccccc4F)cc3[C@@H]21	0	-9	8.9
CCCNC(=O)N1CC2(CCN(C(=O)COC)CC2)c2c(n(C)c3cc(OC)ccc23)[C@H]1CO	21	17	4.0
CCC(=O)N1C[C@@H]2[C@H](c3ccccc31)[C@@H](CO)N2Cc1cc(F)ccc1F	-2	1	-2.4
N#Cc1ccc(-c2ccc([C@H]3[C@H](CO)N4CCCCN(C(=O)Nc5ccc(F)cc5)C[C@@H]34)cc2)cc1	10	3	6.9
Cc1ccccc1-c1ccc([C@H]2[C@H]3CN(C(=O)c4ccncc4)CC(=O)N3[C@H]2CO)cc1	5	3	1.8
COc1ccc(-c2ccc([C@H]3[C@@H](CO)N4CCCCN(CC5CCOCC5)C[C@H]34)cc2)cc1	4	-10	14
CCCC(=O)N1C[C@@H]2[C@H](c3ccccc31)[C@@H](CO)N2C(=O)Nc1ccccc1	2	-2	3.7
Cc1ccccc1S(=O)(=O)N1C[C@@H](O)COC[C@H]2O[C@@H](CC(=O)O)CC[C@@H]21	5	4	0.9
O=C(Nc1ccc2c(c1)[C@@H]1C[C@@H](CC(=O)N3CCc4ccccc4C3)O[C@H](CO)[C@@H]1O2)NC1CCCC1	0	4	-4.1
O=C(CC1CC1)N1CC2(C1)[C@H](c1ccccc1)[C@@H](CO)N2S(=O)(=O)Cc1ccccc1	1	2	-0.1
C[C@@H]1CN([C@@H](C)CO)C(=O)c2cccc(N(C)C)c2O[C@H]1CN(C)C(=O)Nc1ccc(F)cc1	-1	-2	0.6
CO[C@H](CN(C)S(=O)(=O)c1ccc(Cl)cc1)[C@@H](C)CN(C(=O)Nc1ccccc1F)[C@@H](C)CO	2	0	2.4
C/C=C/c1ccc([C@@H]2[C@@H](C#N)N(C(=O)CN3CCOCC3)[C@H]2CO)cc1	1	-2	3.4
C/C=C/c1ccc([C@@H]2[C@@H](CO)N(C(=O)c3ccccc3)[C@@H]2CNC(C)C)cc1	-1	0	-1.2
COc1ccc(S(=O)(=O)N2C[C@@H](O)COC[C@H]3O[C@@H](CC(=O)NCc4ccc(Cl)c(Cl)c4)CC[C@@H]32)cc1	?	·	·
CCC(=O)N1CC2(CCN(Cc3ccc(Cl)cc3)CC2)c2c(n(C)c3cc(OC)ccc23)[C@@H]1CO	?	·	·
(list continues)
SMILES	DUX4 inh	DUX4 inh difference	DUX4 inh control
CN(C)CC(=O)Nc1ccc2c(c1)[C@H]1C[C@H](CC(=O)NCc3ccncc3)O[C@H](CO)[C@H]1O2	2	0	2.6
O=C(C1CCOCC1)N1CC(=O)N2[C@H](CO)[C@@H](c3ccc(Br)cc3)[C@@H]2C1	14	-2	15
NCC[C@@H]1CC[C@@H](NC(=O)Cc2ccncc2)[C@@H](CO)O1	3	-3	5.2
COc1cccc(S(=O)(=O)N2CCCCN3[C@H](CO)[C@H](c4ccc(C#CCC(C)C)cc4)[C@@H]3C2)c1	-49*	-31*	-18*
CC(C)(O)C#Cc1ccc([C@@H]2[C@@H](CO)N3CCCCN(C(=O)c4cccnc4)C[C@@H]23)cc1	11	5	6.5
O=C(C[C@H]1C[C@H]2c3cc(NC(=O)NC4CCCCC4)ccc3O[C@H]2[C@@H](CO)O1)NCC(F)(F)F	3	7	-3.2
C/C=C/c1ccc([C@H]2[C@@H](CO)N(C(=O)C3CC3)[C@H]2CN(C)S(C)(=O)=O)cc1	-4	-5	1.6
O=C(C[C@@H]1CC[C@@H]2[C@H](COC[C@H](O)CN2Cc2ccc(C(F)(F)F)cc2)O1)NCCc1ccccc1	?	·	·
CC(=O)N1[C@H](CO)[C@H](c2ccc(-c3cccnc3)cc2)[C@H]1CNC(=O)C1CC1	3	3	0.4
COc1ccc(CNC(=O)N(C)C[C@H]2OCc3ccccc3-c3c(n(C)c4ccccc34)C(=O)N([C@H](C)CO)C[C@H]2C)cc1	4	17	-13
CC(C)CC#Cc1ccc([C@@H]2[C@@H](CO)N3C(=O)CN(C(=O)c4cccc(F)c4)C[C@@H]23)cc1	?	·	·
C[C@H](CO)N1C[C@H](C)[C@H](CN(C)C(=O)CCC(F)(F)F)OCc2ccccc2-c2c(n(C)c3ccccc23)C1=O	?	·	·
O=C(C[C@@H]1CC[C@H]2[C@@H](COC[C@H](O)CN2S(=O)(=O)c2ccccc2F)O1)NCc1ccccc1F	1	1	0.3
O=C(C[C@H]1C[C@H]2c3cc(NC(=O)NC4CCCCC4)ccc3O[C@H]2[C@H](CO)O1)NCc1ccccn1	-1	-3	2.5
COc1ccc(CN(C)C[C@H]2OCCCC[C@H](C)Oc3ccc(NC(=O)C4CCCCC4)cc3C(=O)N([C@@H](C)CO)C[C@@H]2C)cc1	2	1	0.7
CC=Cc1ccc2n(c1=O)C[C@@H]1[C@@H](CO)[C@H](C(=O)NCc3ccccc3F)N(CC)[C@H]21 (mixture of isomers)	-3	-4	0.9
C[C@H]1CCCCO[C@@H](CN(C)CC2CCCCC2)[C@@H](C)CN([C@@H](C)CO)C(=O)c2cc(NC(=O)C3CCCCC3)ccc2O1	3	0	2.9
COc1ccc(NC(=O)N2C[C@H](O)COC[C@H]3O[C@H](CC(=O)N4CCCCC4)CC[C@@H]32)cc1	10	4	5.7
CCCNC(=O)N1[C@@H](C#N)[C@@H](c2ccc(-c3ccccc3F)cc2)[C@@H]1CO	0	0	-0.7
CCCNC(=O)N1CC2(C1)[C@@H](c1ccccc1)[C@@H](CO)N2C(=O)C1CCC1	0	-5	5.0
COc1ccc(-c2ccc3c(c2)[C@@H]2[C@@H](CCN2S(=O)(=O)C2=NC(C)C=N2)[C@@H](CO)N3C)cc1 (some centres not stated)	28	11	18
O=C(C1CCCCC1)N1CC2(C1)[C@H](c1ccccc1)[C@H](CO)N2Cc1ccc(Cl)cc1	?	·	·
C[C@@H]1CN([C@@H](C)CO)S(=O)(=O)c2ccc(Br)cc2O[C@@H]1CN(C)C(=O)C1CC1	1	-3	3.5
O=C(C[C@@H]1C[C@H]2c3cc(NC(=O)c4cccnc4)ccc3O[C@H]2[C@H](CO)O1)NCC1CC1	10	9	1.0
O=C(C[C@H]1CC[C@@H]2[C@H](COC[C@@H](O)CN2Cc2cccc(Cl)c2)O1)N1CCOCC1	3	5	-1.8
CN1C(=O)c2cc(NC(=O)Nc3ccccc3Cl)ccc2OC[C@H]2O[C@H](CC(=O)NCCCN3CCOCC3)CC[C@@H]21	6	3	2.8

2 entries from above, with two lines to a compound:
Every second line gives: DUX4 inh, DUX4 inh difference, DUX4 inh control
COc1ccc(-c2ccc3c(c2)[C@@H]2[C@@H](CCN2S(=O)(=O)C2=NC(C)C=N2)[C@@H](CO)N3C)cc1 (some centres not stated)
    28, 11, 18
O=C(C1CCCCC1)N1CC2(C1)[C@H](c1ccccc1)[C@H](CO)N2Cc1ccc(Cl)cc1
    ?, ·, ·

Of the compounds above, 8 contain a Cl atom.
SMILES	DUX4 inh	DUX4 inh difference	DUX4 inh control
O=C(C[C@H]1CC[C@@H]2[C@H](COC[C@@H](O)CN2Cc2cccc(Cl)c2)O1)NCc1cccc(F)c1	-1	11	-12
O=C(C[C@H]1C[C@@H]2c3cc(NS(=O)(=O)c4ccc(F)cc4)ccc3O[C@@H]2[C@@H](CO)O1)NCc1ccc(Cl)cc1	?	·	·
CO[C@H](CN(C)S(=O)(=O)c1ccc(Cl)cc1)[C@@H](C)CN(C(=O)Nc1ccccc1F)[C@@H](C)CO	2	0	2.4
COc1ccc(S(=O)(=O)N2C[C@@H](O)COC[C@H]3O[C@@H](CC(=O)NCc4ccc(Cl)c(Cl)c4)CC[C@@H]32)cc1	?	·	·
CCC(=O)N1CC2(CCN(Cc3ccc(Cl)cc3)CC2)c2c(n(C)c3cc(OC)ccc23)[C@@H]1CO	?	·	·
O=C(C1CCCCC1)N1CC2(C1)[C@H](c1ccccc1)[C@H](CO)N2Cc1ccc(Cl)cc1	?	·	·
O=C(C[C@H]1CC[C@@H]2[C@H](COC[C@@H](O)CN2Cc2cccc(Cl)c2)O1)N1CCOCC1	3	5	-1.8
CN1C(=O)c2cc(NC(=O)Nc3ccccc3Cl)ccc2OC[C@H]2O[C@H](CC(=O)NCCCN3CCOCC3)CC[C@@H]21	6	3	2.8
